PV pol inh: poliovirus RNA polymerase inhibition; P03300; poliovirus polymerase elongation, fluorescence polarization; active compounds read low; % elongation, % (compound at 16.7 µg/mL); 0.66% of 150,000 active; AID 588519; in the data active = % elongation below about 90%; also: some results filed as inactive read as strong as hits
Target sequence (P03300 1749-2209 limits assumed): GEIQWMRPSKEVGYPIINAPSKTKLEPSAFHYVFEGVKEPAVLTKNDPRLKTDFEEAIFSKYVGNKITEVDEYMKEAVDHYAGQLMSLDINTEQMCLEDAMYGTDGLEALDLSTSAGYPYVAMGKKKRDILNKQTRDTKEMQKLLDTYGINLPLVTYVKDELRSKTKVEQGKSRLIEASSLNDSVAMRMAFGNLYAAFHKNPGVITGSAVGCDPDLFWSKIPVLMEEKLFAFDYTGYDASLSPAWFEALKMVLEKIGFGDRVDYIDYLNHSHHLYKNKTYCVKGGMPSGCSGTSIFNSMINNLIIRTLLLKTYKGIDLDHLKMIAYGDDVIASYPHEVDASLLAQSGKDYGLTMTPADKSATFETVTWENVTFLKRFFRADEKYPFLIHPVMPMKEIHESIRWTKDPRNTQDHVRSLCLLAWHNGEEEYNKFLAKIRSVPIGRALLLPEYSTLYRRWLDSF
PV pol inh intensity: second read-out of PV pol inh, no call of its own (marks repeat the call); % elongation; measured here: total intensity read-out; formula for this scale not given here;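 total fluorescence in place of polarization; lower means less elongation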
Numbers without * were called inactive. A portion of the library; count on the stated rates, not on these rows.

Values run as follows: PV pol inh | PV pol inh intensity
[1] CC(=O)OC1=C(C(C)=O)N(Cc2ccccc2)S(=O)(=O)c2ccccc21
 : 108.0 | 103.0
[2] CCc1ccc(CN(Cc2ccco2)c2cnc(S(C)(=O)=O)nc2C(=O)Nc2ccc(C)c(Cl)c2)cc1
 : 104.0 | 104.0
[3] Cc1cc(OCC(=O)N(Cc2ccc(N(C)C)cc2)CC2CCCO2)ccc1Cl (stereo not given)
 : 110.0 | 105.0
[4] CCOc1cc(C(Nc2cc(C)ccn2)c2ccc3cccnc3c2O)ccc1OC (stereo not given)
 : 116.0 | 146.0
[5] COc1cc(C2CC(=O)Oc3c2c(=O)n(C)c2ccccc32)ccc1O (stereo not given)
 : 102.0 | 104.0
[6] Cc1c(C(=O)OCc2ccccc2)[nH]c2c1C(=O)CC(c1ccc(C(C)(C)C)cc1)C2 (stereo not given)
 : 96.0 | 99.0
[7] COc1cccc(NC(=O)Cn2c(=O)n(Cc3ccccc3)c(=O)c3c2c2cc(C)ccc2n3C)c1
 : 108.0 | 113.0
[8] CCOC(=O)c1c(NC(=O)c2nc(SCC)ncc2Cl)sc(C(C)=O)c1C
 : 113.0 | 113.0
[9] Cc1cc(C)n(C(C)CC(=O)Nc2cccc(C#N)c2)n1 (stereo not given)
 : 100.0 | 103.0
[10] CC(=O)c1cc(-c2ccc(F)cc2)n(CC(=O)NC2CCCCCC2)c1C
 : 105.0 | 97.0
[11] CCOc1ccc(Nc2nc3c(S(=O)(=O)c4cccc(Cl)c4)nnn3c3ccsc23)cc1
 : 107.0 | 110.0
[12] O=C(Cn1ncc2c3ccccc3n(Cc3cccc(Cl)c3)c2c1=O)NCCCc1ccccc1
 : 155.0 | 189.0
[13] CCN(CC)CCNC(=O)c1ccc2c(=O)n3nc(Nc4ccccc4OC)sc3nc2c1
 : 65.0* | 20.0*
[14] COc1ccc2oc(-c3cccc(NC(=O)c4sc5c([N+](=O)[O-])cccc5c4Cl)c3)nc2c1
 : 102.0 | 104.0
[15] Cc1ccc(CNC(=O)C(=O)Nc2c3c(nn2-c2ccc(F)cc2)CSC3)cc1
 : 109.0 | 110.0
[16] O=C(COC(=O)c1cc(-c2cccs2)nc2ccccc12)c1ccc(Cl)cc1
 : 102.0 | 104.0
[17] CCC(CC)C(=O)Nc1cc(-c2cn3cccnc3n2)ccc1OC
 : 101.0 | 97.0
[18] Cc1c(C)c2c(cc(C)c3c(-c4ccc(Br)cc4)coc32)oc1=O
 : 104.0 | 107.0
[19] CC(=O)N1CCC(N(Cc2ccc(C)o2)C(=O)Nc2ccccc2F)CC1
 : 119.0 | 113.0
[20] Cc1ccc(NC(=O)Cn2c(C)cc(C)c(C#N)c2=O)cc1
 : 105.0 | 111.0
[21] Cc1ccc(Cl)cc1Nc1nn2c(=O)c3ccc(C(=O)NCc4cccs4)cc3nc2s1
 : 100.0 | 93.0
[22] CN(C)c1ccc(CNC(=O)c2ccc3nc(Cc4ccccc4)oc3c2)cc1
 : 106.0 | 113.0
[23] CCCNC(=O)N1[C@H](c2ccc(C)s2)[C@@H](C)C(=O)[C@@H](C)[C@@H]1c1ccc(C)s1
 : 108.0 | 113.0
[24] COc1cc(Cl)c(C)cc1NC(=O)CC1Oc2ccccc2NC1=O (stereo not given)
 : 98.0 | 103.0
[25] O=C(CCNS(=O)(=O)c1cccc2nsnc12)NCc1ccccc1
 : 108.0 | 112.0
[26] CCCSCCCNC(=O)CN1C(=O)CCn2nc(-c3cn(C)c4ccccc34)cc21
 : 110.0 | 112.0
[27] CCCCCn1c(CNC(=O)c2ccccc2)nc2ccccc21
 : 108.0 | 114.0
[28] COc1ccc2nc(N(Cc3cccnc3)C(C)=O)sc2c1
 : 106.0 | 110.0
[29] Cc1cc2nn(-c3ccc(F)cc3)nc2cc1NC(=O)c1cc(Cl)ccc1Cl
 : 103.0 | 105.0
[30] Cc1ccccc1CNC(=O)Cc1ccc(NC(=O)N2CCCCc3ccccc32)cc1
 : 107.0 | 113.0
[31] COc1ccc(Cn2c(=O)c3oc4ccccc4c3n(CC(=O)Nc3cc(C)cc(C)c3)c2=O)cc1
 : 101.0 | 104.0
[32] COc1ccccc1CN1C(=O)C(=O)c2cccc(C)c21
 : 107.0 | 108.0
[33] Cc1ccc(OCC(=O)Nc2cccc(-c3nc4ccccc4o3)c2C)cc1C
 : 106.0 | 110.0
[34] COc1ccccc1N(CC(=O)N1CCC(C)CC1)S(=O)(=O)c1ccc(C)cc1
 : 102.0 | 97.0
[35] COc1cccc(N2C(=O)N(CC(=O)NCc3cccc(OC)c3OC)c3ccccc3S2(=O)=O)c1
 : 107.0 | 109.0
[36] Cc1ccc2nc(NC(=O)CSc3ncc(C(=O)Nc4ccccc4)c(=O)n3C)sc2c1
 : 110.0 | 112.0
[37] CCOc1ccc(S(=O)(=O)NCC(c2ccco2)S(=O)(=O)c2ccc(C)cc2)cc1 (stereo not given)
 : 107.0 | 109.0
[38] NC(=O)Cn1c(=O)n(CCCCCC(=O)NCc2ccc(F)cc2)c(=O)c2sccc21
 : 107.0 | 108.0
[39] COc1cccc(CNC(=O)C2CCN(S(=O)(=O)c3cn(C)cn3)CC2)c1
 : 101.0 | 104.0
[40] Cc1ccccc1Cn1c(CN2CCCC(C)C2)nc2c1c(=O)n(C)c(=O)n2C (stereo not given)
 : 108.0 | 112.0

Looked up by structure from the entries so far:
Values run as follows: PV pol inh | PV pol inh intensity
[32] COc1ccccc1CN1C(=O)C(=O)c2cccc(C)c21
 : 107.0 | 108.0
[25] O=C(CCNS(=O)(=O)c1cccc2nsnc12)NCc1ccccc1
 : 108.0 | 112.0
[28] COc1ccc2nc(N(Cc3cccnc3)C(C)=O)sc2c1
 : 106.0 | 110.0

Carrying on.
Values run as follows: PV pol inh | PV pol inh intensity
[41] COc1ccc(CN2CCCN(CC(=O)Nc3cc(C)ccc3C)S2(=O)=O)cc1
 : 108.0 | 110.0
[42] Cc1ccc(NC(=O)CSc2nc3ccc(NC(=O)CCc4ccccc4)cc3s2)c(C)c1
 : 106.0 | 105.0
[43] CCOc1ccc(OCC)c(NC(=O)C2CCN(S(=O)(=O)c3ccc4c(c3)CC(C)N4C(C)=O)CC2)c1 (stereo not given)
 : 107.0 | 98.0
[44] COc1ccc(-c2nc3sc(CCNC(=O)Cc4ccccc4)c(C)n3n2)cc1
 : 104.0 | 101.0
[45] COC(=O)NCC(c1cccnc1)N1CCN(c2ccc(F)cc2)CC1 (stereo not given)
 : 107.0 | 110.0
[46] COc1ccc(C2c3c(oc4ccccc4c3=O)C(=O)N2Cc2ccc3c(c2)OCO3)cc1 (stereo not given)
 : 101.0 | 105.0
[47] COc1ccc(N2CC(NC(=O)C(=O)c3c(C)[nH]c4ccccc34)CC2=O)cc1 (stereo not given)
 : 119.0 | 113.0
[48] O=C(O)Cn1nc(N2CCN(c3ccccc3)CC2)ccc1=O
 : 113.0 | 114.0
[49] CCOc1ccccc1Nc1nc(-c2cccc(Cl)c2)c2c(n1)-c1ccccc1OC2
 : 106.0 | 103.0
[50] Cc1ccc(NC(=O)Cn2c(-c3ccc4c(c3)OCO4)cn(-c3ccccc3)c2=O)cc1C
 : 113.0 | 110.0
[51] CC(C)c1nn2c(=O)cc(COC(=O)c3cccc(NC(=O)c4cccs4)c3)nc2s1
 : 109.0 | 109.0
[52] Cc1ccc(Cn2cc(S(=O)(=O)c3ccc(Cl)cc3)c(=O)c3cc4c(cc32)OCO4)cc1
 : 100.0 | 102.0
[53] O=C(c1ccccc1Cl)n1nc(-c2ccco2)nc1NCc1cccs1
 : 106.0 | 110.0
[54] CCOC(=O)c1c(C)[nH]c(CCC(=O)NCc2ccccc2Cl)c1C
 : 110.0 | 113.0
[55] O=C(CN1CCCN(Cc2ccc(F)cc2)S1(=O)=O)NCc1ccccc1Cl
 : 108.0 | 98.0
[56] CCN1CCN(C(=O)c2cnn(-c3cccc(Cl)c3)c2C2CCN(C(=O)OC(C)(C)C)CC2)CC1
 : 98.0 | 104.0
[57] CCOC(=O)C1=C(C)N=C2SCCC(=O)N2C1c1ccc(OCc2ccccc2)cc1 (stereo not given)
 : 107.0 | 107.0
[58] CN(C(=O)c1cc2c(=O)oc3ccccc3c2s1)c1ccc(F)cc1
 : 106.0 | 105.0
[59] COc1cc(NC(=O)COCc2cc(-c3ccc4c(c3)OCO4)on2)c(OC)cc1Cl
 : 108.0 | 113.0
[60] COc1cccc(NC(=O)CSc2nnc3scc(-c4ccc(Cl)cc4)n23)c1
 : 101.0 | 107.0
[61] CCCCOC(=O)c1ccc(NC(=O)c2csnn2)cc1
 : 105.0 | 112.0
[62] CCOc1ccccc1NC(=O)Nc1nnc(N2CCCCCC2)s1
 : 108.0 | 111.0
[63] Fc1ccc(-n2nc(-c3ccccc3)c3cnc4ccccc4c32)cc1Cl
 : 113.0 | 102.0
[64] CCCOC(=O)CSc1nnc(-c2ccccc2)o1
 : 104.0 | 110.0
[65] CN(c1ncnc2c1c(-c1ccccc1)cn2-c1cccc(Cl)c1)C1CCCCC1
 : 112.0 | 110.0
[66] Cc1ccc2oc(=O)c3cc(C(=O)N4CCN(c5ccccc5)CC4)sc3c2c1
 : 105.0 | 109.0
[67] CCOC(=O)c1c(C)[nH]c(CCC(=O)Nc2ccc(Cl)cc2C)c1C
 : 110.0 | 108.0
[68] Cc1cn2c(=O)c(S(=O)(=O)NCc3ccc(F)cc3)c(C)nc2s1
 : 112.0 | 117.0
[69] COc1cc(NC(=O)C(CCS(C)(=O)=O)N2Cc3ccccc3C2=O)cc(OC)c1OC (stereo not given)
 : 104.0 | 105.0
[70] COc1cc(OC)c(NC(=O)c2ccc(-n3cnc4cccnc43)cc2)cc1Cl
 : 110.0 | 121.0
[71] CCc1ccc(NC(=O)Cn2c(=O)n(Cc3ccco3)c(=O)c3oc4ccccc4c32)cc1
 : 108.0 | 114.0
[72] COc1ccc(-c2csc3nc(-c4ccccc4C)oc(=O)c23)cc1OC
 : 103.0 | 105.0
[73] COc1ccc(OC)c(NC(=O)c2c(NCc3ccc(N(C)C)cc3)sc3c2CCCC3)c1
 : 108.0 | 102.0
[74] Cc1ccc(CNC(=O)Cn2nc(C)n3cccc3c2=O)cc1
 : 113.0 | 115.0
[75] COc1ccccc1N1CCN(c2ncnc3c2c(-c2ccccc2)cn3-c2cccc(C)c2)CC1
 : 113.0 | 110.0
[76] Fc1ccc(-n2ncc3c(N4CCN(c5ccccc5F)CC4)ncnc32)cc1
 : 102.0 | 94.0
[77] COc1cccc(CNC(=O)CCn2c(=O)c3cccn3c3cccnc32)c1OC
 : 108.0 | 108.0
[78] Cc1ccccc1NC(=O)Cn1c(=O)n(CCCCCC(=O)NCc2ccccc2Cl)c(=O)c2sccc21
 : 103.0 | 98.0
[79] CCN(c1cccc(C)c1)S(=O)(=O)c1ccc2c(c1)NC(=O)CCS2
 : 111.0 | 110.0
[80] CCC(C)c1ccc(OCC(=O)Nc2ccc(-c3nc4ncccc4o3)cc2)cc1 (stereo not given)
 : 104.0 | 111.0

Sorted by length of the SMILES (ascending): four of the compounds above.
Values run as follows: PV pol inh | PV pol inh intensity
[10] CC(=O)c1cc(-c2ccc(F)cc2)n(CC(=O)NC2CCCCCC2)c1C
 : 105.0 | 97.0
[47] COc1ccc(N2CC(NC(=O)C(=O)c3c(C)[nH]c4ccccc34)CC2=O)cc1 (stereo not given)
 : 119.0 | 113.0
[6] Cc1c(C(=O)OCc2ccccc2)[nH]c2c1C(=O)CC(c1ccc(C(C)(C)C)cc1)C2 (stereo not given)
 : 96.0 | 99.0
[35] COc1cccc(N2C(=O)N(CC(=O)NCc3cccc(OC)c3OC)c3ccccc3S2(=O)=O)c1
 : 107.0 | 109.0

Continuation:
Values run as follows: PV pol inh | PV pol inh intensity
[81] COc1ccccc1N1CCN(C(=O)c2cnn(-c3ccc(C)c(C)c3)c2C2CCN(C(=O)OC(C)(C)C)CC2)CC1
 : 116.0 | 109.0
[82] COc1ccc(OC)c(CNc2sc3c(c2C(=O)Nc2cc(OC)ccc2OC)CCCC3)c1
 : 108.0 | 108.0
[83] COc1ccc(Cl)cc1C(=O)Nc1ccc2oc(-c3ccc(C(C)(C)C)cc3)nc2c1
 : 108.0 | 113.0
[84] Cc1ccc(Cl)c(NC(=O)Nc2csc3c2CCCC3)c1
 : 106.0 | 109.0
[85] CC(C)CN(CC(C)C)S(=O)(=O)c1ccc(C(=O)Nc2sc3c(c2C(N)=O)CC(C)(C)NC3(C)C)cc1
 : 106.0 | 109.0
[86] CCC(C)NC(=O)Cn1ncc2c([nH]c3ccc(C)cc32)c1=O (stereo not given)
 : 102.0 | 102.0
[87] Cc1nc(-c2ccccc2)sc1-c1ccc(SCC(=O)NCc2ccccc2Cl)nn1
 : 106.0 | 109.0
[88] COc1ccc(CNc2nc3c(-c4cccc(F)c4)nnn3c3ccccc23)cc1
 : 108.0 | 112.0
[89] COc1cccc(Cn2c(=O)cc(C)c3c(C)nn(-c4ccc(C)cc4)c32)c1
 : 108.0 | 108.0
[90] COc1ccccc1C(=O)NCc1ccc2c(c1)CCN2C(=O)c1ccncc1
 : 107.0 | 112.0
[91] CCN(CC)c1ccc(NC(=O)CN(C)S(=O)(=O)c2cccc3nsnc23)c(C)c1
 : 102.0 | 95.0
[92] Cc1ccc(OCC(=O)Nc2ccc(C(=O)OCc3cc(=O)n4nc(C5CC5)sc4n3)cc2)cc1
 : 114.0 | 114.0
[93] CCCN(C(=O)Cn1nc(Cc2ccncc2)c2ccccc2c1=O)c1ccccc1C
 : 106.0 | 111.0
[94] CC(=O)c1cccc(NC(=O)c2oc(=O)c3ccccc3c2-c2ccccc2)c1
 : 100.0 | 103.0
[95] COCCCNC(=O)CCC(=O)N1Cc2ccccc2Oc2ncccc21
 : 109.0 | 112.0
[96] Cc1ccc(SCC(=O)Nc2cccc(-c3nc4cc(Cl)ccc4o3)c2C)cc1
 : 111.0 | 107.0
[97] COc1ccc(-n2c(SCC(=O)NCc3ccccc3)nc3c([nH]c4ccccc43)c2=O)cc1
 : 105.0 | 108.0
[98] O=C(Nc1nnc(S(=O)(=O)N2CCOCC2)s1)c1ccccc1Cl
 : 107.0 | 107.0
[99] CCN(CCCNC(=O)c1cc2c(=O)[nH]c3ccc(C)cc3c2s1)c1ccc(C)cc1
 : 111.0 | 111.0
